Rango release inh – prevents RanGTP from dissociating the Rango-importin beta complex; Potency, µM (titrated, usually from 46.1 µM), for the others: at the top dose activity change, negative = inhibition; hit rate 0.071% among 340,000; Biochemical FRET Rango-importin beta, RanGTP-induced dissociation; O95149+P62826; active means falling FRET ratio curve, often poorly fitted, with flat reads before Ran was added; inconclusive means other falling curves, or compound fluorescence or quenching; inactive means flat or rising ratio curve;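 further: potency means the concentration at half of the fitted maximal effect; % of control where 0% means no effect; nearly all actives have a fitted effect of over 45% in size; -100% = wells without RanGTP and RCC1; the record marks most hits as doubtful in a second field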
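Compounds sat 5 min at room temperature with 0.1 uM Rango biosensor plus 0.25 uM importin beta, then FRET pre-read. RanGTP-RCC1 (0.6 uM Ran, 2mM GTP, 0.2 uM RCC1) added for 45 min, and the CFP/YFP post-read measured blocked complex dissociation.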
GLA inh pH 4.5 – blocks human alpha-galactosidase A at pH 4.5. purified enzyme, 4-MU-alpha-Gal fluorescence, pH 4.5. activity change, negative = inhibition, % at 105 µM. 230,000 tested, under 10 active. AID 1467; inconclusive = small, poorly fitted or top-dose-only inhibition, or a rising curve; inactive = flat fitted curve, though single readings scatter; no compound was filed as active;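 further: 0% = full activity with enzyme and -100% = basal without enzyme; dose as in the result columns while the protocol names 77 µM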
Target sequence (P06280 whole entry, looked up): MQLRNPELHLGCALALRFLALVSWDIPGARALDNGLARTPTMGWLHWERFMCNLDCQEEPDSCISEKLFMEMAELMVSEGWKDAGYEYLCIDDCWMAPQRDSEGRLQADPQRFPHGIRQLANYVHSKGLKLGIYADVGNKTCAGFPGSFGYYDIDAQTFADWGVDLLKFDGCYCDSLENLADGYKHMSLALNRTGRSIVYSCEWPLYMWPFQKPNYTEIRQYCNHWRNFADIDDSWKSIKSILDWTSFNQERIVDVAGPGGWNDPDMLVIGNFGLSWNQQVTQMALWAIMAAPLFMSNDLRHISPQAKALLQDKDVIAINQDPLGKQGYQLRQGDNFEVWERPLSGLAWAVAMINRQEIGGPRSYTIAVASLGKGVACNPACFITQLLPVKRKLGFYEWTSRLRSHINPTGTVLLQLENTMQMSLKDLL
Rango-impB inh – Rango-importin beta binding inhibition. Q14974. Rango CFP/YFP FRET sensor + importin beta, 45 min. Potency, µM (series often up to 92.2 µM), for the others: at the top dose inhibition of complex formation. hit rate 0.031% among 340,000; active = rising FRET ratio curve, often small or poorly fitted; inconclusive = mostly compound fluorescence or quenching in the first reads; inactive = flat curves in all reads;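 further: potency means the concentration at half of the fitted maximal effect; 0% = DMSO wells and 100% = buffer wells lacking importin beta; nearly all actives have a fitted effect of over 15% in size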
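Inhibition scored from the CFP 486 nm/YFP 530 nm FRET ratio 45 min after adding 0.125 microM importin beta to 50 nM Rango biosensor preincubated 5 min with compound (room temperature, PBS with DTT, Tween-20, BSA). No-importin wells as positive control.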
miR-21 FLuc – miR-21 reporter, rising signal. HeLa miR-21 FLuc reporter, luciferase, 48 h. Potency, µM (top dose mostly 38.3 µM), inactives show at the highest dose reporter change, positive = more light. 340,000 tested, under 10 active. AID 2288; active = well fitted rising curve with a large enough effect; inconclusive = small, poorly fitted or top-dose-only effect; inactive = no such curve, though single readings can be large or run the other way;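 further: % of control where 0% means no effect; miR-21 action dims this reporter so a rising signal means less miR-21 action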
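Using DMEM plus 10% FBS, HeLa miR-21-FLuc cells are incubated with test compounds (final up to about 40uM) for 48 hours; firefly luciferase signal is then imaged following reagent-mediated lysis.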
An asterisk follows results filed as active; u = inconclusive; x = not tested or not shown; & = joins results of further samples. A portion of the library; rates above refer to the full screens.

Rango release inh | GLA inh pH 4.5 | Rango-impB inh | miR-21 FLuc | SMILES
2% | x | 1.1% | x | Cc1cccc(NC(=O)CSc2nc(=O)n3ccccc3n2)c1C
9% | 1 | -0.4% | -1% | CCc1nc(SCC(=O)O)c(C#N)cc1C
-2% | x | 4.1% | x | CC(OC(=O)/C=C/c1ccccc1Cl)C(=O)NC1CCCCC1C (stereo not given)
5% | x | -2.1% | 6% | CCc1ccc(NC(=S)N2CCC(NC(=O)c3ccccc3OC)CC2)cc1
5% | -3 | -0.5% | 0% | COc1cc(S(=O)(=O)NCc2cccnc2)c(OC)cc1Br
14% | -19 | 7.2% | -3% | CCOC(=O)C(CSCC(=O)c1ccc(Cl)cc1Cl)NC(=O)OC(C)(C)C (stereo not given)
-8% | 5 | 3.4% | -8% | CCCSc1nnc(CSc2nc(C)cc(C)n2)n1C
0% | -5 | -0.5% | 0% | CC(C)[C@H](NC(=O)NCc1ccc(F)cc1)C(=O)O
0% | x | -4.1% | -3% | CC(=O)Nc1cccc(C(=O)NC(C)c2ccc(-n3ccnc3)cc2)c1 (stereo not given)
-7% | 0 | 2.4% | -42% | Cc1ccccc1/C=N/Nc1nc2ccccc2[nH]1
0% | x | 4.2% | -19% | O=C(N/N=C\c1cccnc1)c1ccc(Br)s1
6% | x | -1.4% | -1% | CCOC(=O)c1sc(NC(=O)CSc2nc3cccnc3n2C)nc1C
2% | 2 | -3.3% | 0% | O=C(O)c1cccc(NS(=O)(=O)c2cccc3cccnc23)c1
-10% | -9 | 3.9% | 9% | CN(c1ccc(C(=O)N2CCN(Cc3ccc4c(c3)OCO4)CC2)cc1)S(C)(=O)=O
4% | -6 | 0.2% | 22% | CC1CC(C)(C)n2c(O)c(N=NC(N)=S)c3cccc1c32 (stereo not given)
4% | -1 | -3.5% | -1% | Cc1ccc(S(=O)(=O)NCC(=O)OCC(=O)N(Cc2ccccc2)C(C)(C)C)cc1
1% | 1 | 1.7% | -19% | COc1ccc2c(c1OC)C(=O)OC2Nc1nc2ccccc2s1 (stereo not given)
4% | x | 0.3% | -1% | Cc1ccc([N+](=O)[O-])c(NC(=O)COC(=O)C2CC3CCCC(C2)C3=O)c1C (stereo not given)
2% | 6 | 4.8% | 5% | COc1ccc2c(OC)cc(=O)n(C)c2c1
2% | x | -0.7% | -4% | O=[N+]([O-])c1ccc(NC(=S)N2CCc3ccccc32)cc1
-23% | 3 | -0.2% | -1% | Cc1cc(C)nc(/N=C(\N)Nc2ccc(S(=O)(=O)O)cc2)n1
6% | 2 | -2.2% | -11% | C/C(Cn1cnc([N+](=O)[O-])n1)=N\NC(=O)c1ccccc1O
-17% | -19 | u | 26% | CC(=O)Nc1nc(NC(=O)/C=C/c2ccccc2)n(-c2ccccc2)n1
-10% | x | 1.8% | x | COc1ccc(CCNC(=O)COC(=O)/C=C/c2ccc(OC)cc2OC)cc1
9% | x | -2.6% | x | Cc1ccc(OCCC(=O)OCC(=O)N2CCN(S(=O)(=O)c3ccc(C)cc3)CC2)cc1
11% | -2 | -0.3% | -20% | Cc1ccc(-c2nnc(-c3cccc(NC(=O)c4cccs4)c3)o2)cc1
-24% | -11 | -0.6% | -7% | CC(C)(C)c1cc(C(=O)O)nn1-c1ccccc1
7% | 8 | -1.1% | -14% | COc1ccc(-n2c3c(c(=O)[nH]c2=O)C(C(F)(F)F)(C(F)(F)F)N=C(CC(C)C)N3)cc1
12% | x | 3.1% | -13% | COc1ccc(C(=O)N/N=C(\C)CC(=O)Nc2ccc3c(c2)OCCO3)c(OC)c1
-1% | x | -1.0% | 2% | COc1ccc(/C=C2/SC(=O)N(CCC(=O)Nc3ccccc3C(=O)O)C2=S)cc1
26% | x | -0.5% | 0% | Cc1ccc(C(=O)N2CCN(S(=O)(=O)N3CCCCCC3)CC2)cc1
-15% | x | u | 15% | CCC(C(=O)NC1CCCC1)N(C(=O)Cn1nnc(-c2ccc(C)o2)n1)c1cccc(O)c1 (stereo not given)
15% | 0 | 0.5% | -5% | CC1CCCN(S(=O)(=O)c2ccc(C(=O)Nc3ccccc3-c3nc4ccccc4[nH]3)cc2)C1 (stereo not given)
x | 11 | x | 10% | NC(=O)c1sc2nc3c(c(-c4cccs4)c2c1N)CCCC3
9% | -3 | 0.1% | 10% | COc1ccc(N2CCN(c3ccc(C(N)=O)cc3[N+](=O)[O-])CC2)cc1
1% | 18 | -2.4% | -16% | Cc1ccc(C(=O)Cn2cccn2)cc1
21% | x | 0.0% | -2% | Cc1c(C(=O)Nc2c3c(nn2C(C)(C)C)CS(=O)(=O)C3)cccc1[N+](=O)[O-]
-9% | 3 | 2.3% | -4% | CC(=O)c1[nH]c(C)c(C(C)=O)c1C
2% | -4 | -0.6% | 1% | O=C(c1cnn2c1NC(c1ccc(Br)cc1)CC2C(F)(F)F)N1CCN(C23CC4CC(CC(C4)C2)C3)CC1 (stereo not given)
-13% | 5 | -2.5% | 2% | Cc1c(Cl)cnc(NC(=O)COC(=O)CCS(=O)(=O)c2ccccc2)c1Cl
u | 1 | 2.5% | -17% | Cc1ccc2nc(NC(=O)/C=C/c3ccc4c(c3)OCO4)sc2c1
-10% | 7 | -1.9% | -11% | C/C(=N\NC(=O)CCc1ccc(S(=O)(=O)N2CCOCC2)cc1)c1ccc(OC(F)F)cc1
17% | x | -2.1% | -24% | COc1ccccc1CCNC(=O)C1CCN(C(=O)/C=C/c2ccccc2)CC1
1% | 1 | -0.7% | -13% | COCCN(C(=S)Nc1cc(C)ccc1C)C(C)c1cccnc1 (stereo not given)
-15% | x | 0.7% | x | COc1ccc(NC(=O)Nc2cccc(OC)c2)cc1
-16% | x | 6.4% | -1% | COc1ccccc1NC(=O)Cn1c2ccc(F)cc2c2nc3n(c(=O)c21)CCS3
3% | x | 1.7% | -3% | O=C(c1ccc(OC2CCN(CCO)CC2)cc1)N1CCCC1
9% | -1 | 0.8% | 0% | O=C(c1cccs1)N1CCOCC1
-8% | -4 | -3.5% | -31% | CCOC(=O)Cn1nc(-c2ccccc2)nc1-c1ccccc1
1% | x | 0.4% | 4% | COc1ccc(S(=O)(=O)NNC(=O)Nc2ccc(C)cc2C)c(OC)c1
14% | x | 0.8% | -7% | Cc1ccsc1C(=O)N(CC(C)C)c1c(N)n(Cc2ccccc2)c(=O)[nH]c1=O
-14% | x | -0.8% | -2%&-1% | CCOc1ccc(CNC(=O)Cn2nc(C)c3c(C)n(-c4ccc(C)cc4)nc3c2=O)cc1
6% | -15 | 0.4% | -6% | Cc1noc(C)c1C(=O)Nc1sc2c(c1C(N)=O)CCCCC2
-1% | 1 | 0.1% | -14% | O=C(NCc1ccccn1)Nc1ccc(F)cc1
8% | 0 | -0.8% | -5% | Oc1ccccc1Oc1c(F)c(F)nc(N2CCCC2)c1F
-3% | x | 1.4% | 3% | COc1ccc(S(=O)(=O)NCC(=O)NCc2cc(=O)n(C)c(=O)n2C)cc1C
u | x | u | 1% | CCc1n[nH]c(=S)n1/N=C/c1c(O)ccc2ccccc12
22% | -15 | -2.8% | 0% | Cc1ccc(CN(CCO)CCO)cc1
u | -4 | u | -3% | Cc1ccc2nc(Cl)c(/C=N/Nc3nc(C)cc(C)n3)c(=O)n2c1
u | -16 | u | -6% | CCOc1ccc(S(=O)(=O)Nc2nc3ccccc3nc2Nc2ccc(N3CCOCC3)cc2)cc1

(cont.)
Rango release inh | GLA inh pH 4.5 | Rango-impB inh | miR-21 FLuc | SMILES
-10% | x | 1.1% | 1% | Cc1cc(=O)oc2cc(OCC(=O)NCCN3CCOCC3)c(Cl)cc12
2% | 1 | 3.4% | -12% | Cc1cccc(N2CCN(C3=NC(=O)C(=C4CCCCC4)S3)CC2)c1
36% | 3 | 4.8% | u | CC1(C)CC(N2CCN(C(c3ccccc3)c3ccccc3)CC2)=CC(=[N+]2CCCCC2)C1
0% | 2 | 0.5% | 0% | CC(C)NC(=O)CSc1nc(N)c(NC(=O)c2ccco2)c(=O)[nH]1
8% | 0 | -1.1% | -2% | CCCCCn1c(SCC(=O)OCC)nc2cc(C(=O)NCc3ccco3)ccc2c1=O
-22% | -3 | u | 11% | COc1cc(/C=N/Nc2snc(SC)c2C#N)cc(OC)c1OC
-7% | -1 | -2.0% | 1% | Cc1ccc(-n2cccc2/C=N/n2cnnc2)cc1Cl
-8% | -4 | 0.3% | -38% | Cc1ccc(NC(=O)CSc2nccn2Cc2ccccc2)cc1C
1% | -8 | -1.2% | -13% | O=C(CNC(=O)c1ccccc1F)NCCOc1cccc(Cl)c1Cl
5% | 1 | -2.5% | -3% | Nc1nnc(CCS(=O)(=O)c2ccc(Cl)cc2)s1
-7% | x | 2.4% | 2% | COc1cc(CN2CCCC(CO)(Cc3ccccc3F)C2)ccc1O (stereo not given)
-3% | -9 | -0.1% | 2% | COc1ccc(Cc2nnc(N=Nc3c(O)[nH]c4ccc(Br)cc34)[nH]c2=O)cc1

Structures above with a Cl atom:
Rango release inh | GLA inh pH 4.5 | Rango-impB inh | miR-21 FLuc | SMILES
-2% | x | 4.1% | x | CC(OC(=O)/C=C/c1ccccc1Cl)C(=O)NC1CCCCC1C (stereo not given)
14% | -19 | 7.2% | -3% | CCOC(=O)C(CSCC(=O)c1ccc(Cl)cc1Cl)NC(=O)OC(C)(C)C (stereo not given)
-13% | 5 | -2.5% | 2% | Cc1c(Cl)cnc(NC(=O)COC(=O)CCS(=O)(=O)c2ccccc2)c1Cl
u | -4 | u | -3% | Cc1ccc2nc(Cl)c(/C=N/Nc3nc(C)cc(C)n3)c(=O)n2c1
-10% | x | 1.1% | 1% | Cc1cc(=O)oc2cc(OCC(=O)NCCN3CCOCC3)c(Cl)cc12
-7% | -1 | -2.0% | 1% | Cc1ccc(-n2cccc2/C=N/n2cnnc2)cc1Cl
1% | -8 | -1.2% | -13% | O=C(CNC(=O)c1ccccc1F)NCCOc1cccc(Cl)c1Cl
5% | 1 | -2.5% | -3% | Nc1nnc(CCS(=O)(=O)c2ccc(Cl)cc2)s1

(next part)
Rango release inh | GLA inh pH 4.5 | Rango-impB inh | miR-21 FLuc | SMILES
-4% | 3 | -3.9% | 1% | CC(NC(=O)C(=O)N/N=C\c1ccc([N+](=O)[O-])cc1)c1ccccc1 (stereo not given)
1% | -15 | 3.9% | 0%&2% | Cc1nn(Cc2noc(C(=O)NCc3ccc(F)cc3)n2)c(C)c1Br
15% | x | -4.4% | 2% | COC(=O)C1CCN(C(=O)COC(=O)C2CCN(S(=O)(=O)c3ccc4c(c3)OCCO4)CC2)CC1
14% | 2 | 0.2% | -21% | Clc1cccc(C2CCN(Cc3nc(CC4CC4)no3)C2)c1 (stereo not given)
8% | x | -1.5% | x | Cn1nc(C(=O)NNC(=O)CCOc2ccc(C(C)(C)C)cc2)c2ccccc2c1=O
-11% | 6 | -3.0% | -1% | Cc1ccc(S(=O)(=O)/N=c2\sccn2C)cc1
-10% | 9 | -6.7% | -5% | Cc1nn(-c2ccccc2)c2nc(-c3ccco3)cc(C(=O)O)c12
11% | x | 6.6% | x | O=C1c2ccccc2C(=O)c2cc(N3CCCCC3)ccc21
-2% | 4 | 1.4% | 15% | CN(C)c1ccc(-c2nc3ccccc3n2C)cc1
-1% | -2 | -0.3% | -18% | CCCCNC(=O)c1ccc(NS(=O)(=O)c2ccccc2)cc1
-1% | -14 | 2.1% | -7% | Cc1ccc(NC(=S)NNC(=O)C2CC2c2ccc(C)cc2)cc1 (stereo not given)
23% | 2 | -4.4% | 2% | Cc1c(NC(=O)COC(=O)COc2ccc(Nc3ccccc3)cc2)c(=O)n(-c2ccccc2)n1C
10% | x | 2.4% | 6% | COc1ccc(N2CCN(C(=O)c3ccc(C)c(NC(=O)C4=C(C)OCCS4)c3)CC2)cc1
5% | 2 | -1.7% | -4% | COc1cc2c(cc1OC)CN(C(=S)Nc1ccc(OC(F)F)cc1)CC2
2% | x | -4.1% | 3% | COc1ccccc1OCC(=O)Nc1cc(C)ccc1NC(=O)c1ccco1
3% | 7 | 1.7% | -29% | CCc1cccc2c(C(=O)COC(=O)c3ccc(O)cc3)c[nH]c12

Compound activity (PubChem BioAssay)
